# PABP polyA inh – PABP poly(A) RNA binding inhibitors, primary screen, biochemical, fluorescence polarization, uHTS. inhibition, % at 35 µM. 290,000 compounds, 1% hits. AID 2014, 2009;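 active means 50% or more with normal probe brightness, or confirmed in later tests; inconclusive means above 50% with abnormal brightness, or retests that disagree; inactive means below 50% or failed in later tests; about a fifth of its hits are not listed in these tables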;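 further: calls also rest on retests at 20 µM and on dose response follow-up; controls were probe without protein and protein plus probe with vehicle; some compounds called inactive have numbers as strong as hits; many hits fall short of the cut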
# Target sequence (P11940 whole entry, looked up): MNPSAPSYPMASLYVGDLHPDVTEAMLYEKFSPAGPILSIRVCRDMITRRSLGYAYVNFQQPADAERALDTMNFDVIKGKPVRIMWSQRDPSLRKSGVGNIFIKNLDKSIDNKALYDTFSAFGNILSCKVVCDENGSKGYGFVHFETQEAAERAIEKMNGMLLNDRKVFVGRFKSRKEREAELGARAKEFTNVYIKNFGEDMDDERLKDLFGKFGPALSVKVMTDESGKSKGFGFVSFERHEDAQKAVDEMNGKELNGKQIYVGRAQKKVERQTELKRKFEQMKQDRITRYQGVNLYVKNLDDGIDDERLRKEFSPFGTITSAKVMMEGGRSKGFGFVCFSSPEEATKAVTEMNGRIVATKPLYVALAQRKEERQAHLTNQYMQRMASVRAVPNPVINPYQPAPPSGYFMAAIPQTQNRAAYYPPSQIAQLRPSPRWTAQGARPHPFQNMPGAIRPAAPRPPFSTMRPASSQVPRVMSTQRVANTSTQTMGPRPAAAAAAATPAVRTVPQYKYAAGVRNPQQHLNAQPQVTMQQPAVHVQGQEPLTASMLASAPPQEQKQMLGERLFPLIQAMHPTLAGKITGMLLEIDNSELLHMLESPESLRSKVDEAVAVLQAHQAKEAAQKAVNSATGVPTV
# Env fusion inh – inhibitors of HIV-1 Env-driven cell-cell fusion, primary screen, HeLa-JRFL effector, CEM21 target cells, luciferase; inhibition, % at 12.3 µM; AID 651610, 2012; 360,000 compounds, 1.1% hits;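 active means mean replicate inhibition score of at least 50 and every replicate individually at or above 50; inconclusive means only one of the two criteria met; inactive means mean below 50 and not all replicates reaching 50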;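 further: 0% = plate neutral controls and 100% = maraviroc near 300 nM; one replicate is shown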
# eIF4H FP inh – human eIF4H binding inhibitors, primary screen, translation initiation inhibitor project, biochemical, uHTS, fluorescence polarization; Eukaryotic translation initiation factor 4H (Homo sapiens), Q15056; eIF4H fluorescence polarization binding assay; inhibition, % at 35 µM; 290,000 compounds, 0.94% hits; AID 2012, 2009;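 active means 50% or more with normal probe brightness, or confirmed in later tests; inconclusive means above 50% with abnormal brightness, or retests that disagree; inactive means below 50% or failed in later tests; about a fifth of its hits are not listed in these tables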;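 further: calls also rest on retests at 20 µM and on dose response follow-up; 0% = protein and probe with vehicle and 100% = probe without protein; strong numbers were not always called active; many hits fall short of the cut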
# Yeast UUG start – modulators of yeast start codon fidelity, primary screen, whole organism, S. cerevisiae, single point, plate reader. activity score, % at 18.7 µM. AID 602363, 2012. S. cerevisiae UUG-firefly luciferase reporter, luminescence/redox ratio. 350,000 compounds, 0.13% hits;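 active means replicate mean at a twofold rise or more, about +100% in these data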;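 further: firefly luciferase made from a UUG start codon reports start codon fidelity; reporter light over untreated wells divided by growth signal over untreated wells; some hits fall short of that in this replicate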
# MT1-MMP act inh – blockers of MT1-MMP proenzyme processing, primary screen, HT1080 RFP-PRO-GFP cells, GFP/RFP fluorescence; GFP/RFP ratio change, % at 20 µM; 360,000 compounds, 0.061% hits; AID 651647, 2012; GFP/RFP ratio fluorescence, overnight; percent of plate control window, DMSO zero;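 active means GFP/RFP ratio change of at least 30% with cell ATP level not reduced by more than half and red fluorescence within 50% of control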; further: strong numbers were not always called active
#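 Material: RFP-PRO-GFP reporter HT1080 cells. Dosing: single-point 20 µM compound, 1% DMSO. Controls: DMSO and RFP-L50D-GFP cell wells. Timing: cells overnight before dosing, compound overnight, 37 °C, 5% CO2. Measure: GFP/RFP fluorescence ratio.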
# CSC inhib – cancer stem cell viability inhibitors, primary screen, luminescence; cancer stem cell-like cells viability; inhibition, % at 7.5 µM; 300,000 compounds, 1.1% hits;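 active means mean at 75% or more and at least half the replicates too; inconclusive means mean and replicates disagree; tested in HMLE shEcad cells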;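 further: 0% = median of negative and 100% = median of positive control wells; the first replicate is given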
# Rce1 inhib – yeast Rce1p protease inhibitors, primary screen, biochemical, fluorescence, cell-free homogeneous; CAAX prenyl protease 2 (Saccharomyces cerevisiae (strain ATCC 204508 / S288c)), Q03530; yeast membranes, quenched prenylated peptide cleavage fluorescence; calls only; 290,000 compounds, 0.27% hits; AID 2563, 2010;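 active means fall in fluorescence gain of 50% or more versus controls, with final raw signal at or below 3038400; inconclusive means same 50% fall but final raw signal above 3038400; inactive means fall in fluorescence gain under 50%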;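 further: plate controls were neutral control wells for no effect and wells lacking membranes for full effect; tested at 10 µM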
# Target sequence (Q03530 whole entry, looked up): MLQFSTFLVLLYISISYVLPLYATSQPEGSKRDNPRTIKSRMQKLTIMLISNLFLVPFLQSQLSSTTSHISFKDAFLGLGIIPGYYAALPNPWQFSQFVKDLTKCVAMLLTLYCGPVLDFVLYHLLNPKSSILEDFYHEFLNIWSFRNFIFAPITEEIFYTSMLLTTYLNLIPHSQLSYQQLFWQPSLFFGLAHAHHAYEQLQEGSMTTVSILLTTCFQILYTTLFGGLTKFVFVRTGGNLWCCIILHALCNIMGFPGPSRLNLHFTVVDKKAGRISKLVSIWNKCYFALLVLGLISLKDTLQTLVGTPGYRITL
# MT1-MMP act inh RFP – also measured in MT1-MMP act inh; calls as there; RFP signal change, %; measured here: RFP expression control read;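 0 = vehicle wells; hits needed this value within 50% of zero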
# * marks the source's active call; other numbers are inactive results; i = inactive; ? = inconclusive; . = not tested or not shown; & = joins results of further samples; [ ] = dose if it differs, or a comment.
molecule	PABP polyA inh	Env fusion inh	eIF4H FP inh	Yeast UUG start	MT1-MMP act inh	MT1-MMP act inh RFP	CSC inhib	Rce1 inhib
CCOc1ccc(CCN2C(=S)N([C@@H](CC(C)C)CN3CCC[C@@H]3CN3C(=S)NC[C@@H]3Cc3ccc(O)cc3)C[C@@H]2Cc2ccc(O)cc2)cc1	.	-100	.	-20	1	-3	.	.
N=C(N)c1ccc(Cl)cc1	-12	4	-3	.	-3	3	-6	i
Cc1cc(C)c(NC(=O)CSc2nnc(CNC(=O)c3c(F)cccc3Cl)o2)c(C)c1	14	-2	-1	-13	0	4	-30	i
COc1cccc(NC(=O)CCc2nnc3ccc(N4CCN(c5cccc(OC)c5)CC4)nn23)c1	17	.	2	-12	1	-2	-12	i
O=C1C2CCCCN2C(=O)N1CCCCN1CCN(c2cccc(Cl)c2)CC1 (centres undefined)	0	-6	-7	2	-3	-1	-1	i
COCCN1C[C@@H](CO)O[C@@H](n2cnc3c(N4CCN(CCO)CC4)ncnc32)C1	.	8	.	-42	1	2	.	.
O=C(c1ccc(Cl)cc1)N(Cc1cccs1)C1CCS(=O)(=O)C1 (centres undefined)	-6	.	13	-12	6	2	-6	i
Cc1cc(NC(=O)C2CC(c3c(F)cccc3Cl)=NO2)n(-c2ccccc2)n1 (centres undefined)	-2	-4	-6	.	-1	0	5	i
CCSC1=NCN(CCCC(=O)O)CN1	-11	-121	2	-27	0	0	.	i
CC(OC(=O)c1ccccc1NCCO)C(=O)Nc1ccnn1C(C)C (centres undefined)	.	8	.	-9	5	0	-18	.
CC1=C(C(=O)N2CCOCC2)C(c2ccc(O)cc2)NC(=S)N1 (centres undefined)	0	-47	6	.	-3	1	-9	i
O=C(NCC(c1ccco1)N1CCN(c2ccccc2F)CC1)c1cccs1 (centres undefined)	.	-13	.	-8	2	-1	-6	i
NC(=S)Nc1ccc(F)c(F)c1F	-6	-5	-9	.	0	4	-7	i
COc1cc(/C=N/NC(=S)NC2CC3C=CC2C3)cc(OC)c1OC (centres undefined)	0	9	0	-18	8	-4	-5	i
N#C/C(=N\Nc1ccc([N+](=O)[O-])cc1)C(N)=S	-7	10	-19	.	49	-18	35	i
O=C(O)CCc1nn2cnc3sc4c(c3c2nc1=O)CCCC4	10	-2	-10	.	6	2	-2	i
O=C(Nc1ccccc1)C1=C[C@H](c2ccc3c(c2)OCO3)C[C@H](OCc2ccc(CO)cc2)O1	-9	-20[16.7 µM]	0	-21&-26&-16	5	2	-8	i
CN(CC(=O)Nc1ccccc1Cl)C(=O)CSc1nnc(N)s1	.	.	.	-12	1	4	6	i
CCN1CCc2nc(NC(=O)C(c3ccccc3)c3ccccc3)sc2C1	15	.	26	-7	-3	-2	38	i
CC(=O)Nc1ccc(NC(=O)C(C)OC(=O)c2cc(S(=O)(=O)N(C)C)ccc2N2CCCC2)cc1 (centres undefined)	.	-16	.	-3	0	5	-4	i
CCC(=O)N(Cc1cc2ccccc2[nH]c1=O)c1ccccc1OC	-5	12	11	-11	-1	3	-20	i
CCOC(=O)c1c(NC(=O)CSc2nnc(-c3c[nH]c4ccccc34)n2CC)sc2c1CCCC2	-7	27	-5	-7	-1	-6	.	i
CC(NC(=O)C1=CC=CN2CCS(=O)(=O)N=C12)c1ccc(Cl)cc1Cl (centres undefined)	.	12	.	-18	-2	0	.	.
O=C(NCCNC(=O)c1ccc(Br)o1)c1cccnc1	-11	.	-7	-15	5	5	-6	i
COc1cc(NC(=O)c2cc(=O)[nH]c3ccc(S(=O)(=O)N4CCOCC4)cc23)cc(OC)c1	.	11	.	-20	0	-2	.	.
O=C(CCc1nnc2ccc(NCc3ccccc3Cl)nn12)NC1CCCCC1	4	0	-7	-18	1	1	-3	i
CC1CCN(S(=O)(=O)c2ccc3c(c2)N(CC(=O)NCCCN2CCCC(C)C2)C(=O)CO3)CC1 (centres undefined)	8	20	-4	-14	.	.	-4	i
COCCNC(=O)/C(C#N)=C/c1ccc(C)o1	-6	-19	-6	.	2	9	10	i
CN(C)S(=O)(=O)c1ccc(C(=O)NCC2(N3CCOCC3)CCCCC2)cc1	.	6	.	-9	2	3	.	.
c1cc(-c2n[nH]c(-c3ccncc3)n2)ccn1	.	-5	.	-26	-2	1	-8	i
CC(C)(C)NC(=O)NC(=O)CSc1ncccn1	-10	2	-7	-7	2	5	1	i
O=C(NNC(=O)c1cccs1)c1ccccc1	6	-3	-4	.	2	5	4	i
Cc1ccc(C)c(S(=O)(=O)c2c(N)n(/N=C/c3ccco3)c3nc4ccccc4nc23)c1	31	.	8	-4	-6	-2	.	i
Cc1csc(Nc2ccccc2C(F)(F)F)n1	-8	.	2	.	4	-1	-4	i
Cc1ccc(/C=N/NC(=O)Cn2cnc3c2c(=O)n(C)c(=O)n3C)s1	6	18	-8	.	2	-2	-14	i
COc1ccccc1C(=O)NNS(=O)(=O)c1ccc(F)cc1	6	32	-6	-10	-3	1	-2	i
N#Cc1cn(-c2cccc(C(F)(F)F)c2)c(=O)[nH]c1=O	-7	-33	7	3	1	-6	2	i
COC(=O)c1ccc(NC(=S)NCCc2ccccc2C)cc1	-6	-1	-15	.	2	-2	-8	i
COc1cccc(N(CC(=O)NC2CCCC2)C(=O)CCC(=O)Nc2nccs2)c1	6	2	3	-17	4	4	0	.
CCOc1cc(C)nc(N2CCC(C(=O)NC3CC3)CC2)n1	.	-2	.	-7	3	5	.	.
c1ccc(Cc2nnc3sc(Nc4ccccc4)nn23)cc1	6	?	-3	.	2	-8	0	i
CCC(NS(=O)(=O)c1ccc(C)cc1)C(=O)N1CCOCCOCCOCCOCC1 (centres undefined)	-12	-5	-5	-9	0	1	1	i
C/C=C/c1ccccc1OCc1ccc(C(=O)O)o1	-3	6	-11	-2	-3	4	-16	i
O=C(CNc1cccc(C(F)(F)F)c1)Nc1cccc(S(=O)(=O)N2CCCC2)c1	.	26	.	.	-4	-16	-10	.
c1ccc(C2OC3c4cccc5cccc(c45)C3N2c2ccccc2)cc1 (centres undefined)	-4	-69	4	-16	5	5	20	i
CCC(C)NC(=O)CCNS(=O)(=O)c1ccc(Br)cc1 (centres undefined)	-6	-51	7	.	2	2	-8	i
COc1cc(OC)cc(C(=O)N/N=C(\C)CC(=O)Nc2ccccn2)c1	-4	17	2	-7	2	2	9	i
CC(=O)C1=C(O)C(=O)N(c2ccc(C(=O)O)cc2)C1c1ccccc1 (centres undefined)	19	-57	-8	.	2	9	-10	i
Cn1nnc(NC(=S)NC(=O)c2ccco2)n1	14	0	2	-24	1	3	-9	i
COc1ccccc1NC(=O)CN(Cc1ccco1)C(=O)c1cc(Cl)c(OC)c(OC)c1	.	-16	.	-1	2	0	.	.
COc1cccc(NC(=O)COC(=O)c2ccc(C)c(S(=O)(=O)N3CCCCC3)c2)c1	.	.	.	-30	6	-4	9	.
CN1CCC(N(C)S(=O)(=O)c2ccc(NC(=O)COc3cccc(Cl)c3)cc2)CC1	.	-16	.	.	0	1	-3	i
CC12CC3CC(C)(C1)CC(C(=O)N1CCN(C(=O)c4ccco4)CC1)(C3)C2	-4	14	-4	-1	-6	-3	-8	i
Cc1ccc2nc(-c3ccc4c(c3)OCCO4)cn2c1	-11	34	4	-93	3	-13	62	i
CCCCn1c(N)c(N(CCOC)C(=O)CSc2n[nH]c(-c3ccc(C)cc3)n2)c(=O)[nH]c1=O	.	.	.	.	1	3	-9	i
Cc1ccc(S(=O)(=O)NCC(=O)NCC2CCCCC2)cc1C	-13	11	-11	-3	0	1	-6	.

# (continued)
molecule	PABP polyA inh	Env fusion inh	eIF4H FP inh	Yeast UUG start	MT1-MMP act inh	MT1-MMP act inh RFP	CSC inhib	Rce1 inhib
Cc1cccc(C)c1NS(=O)(=O)c1ccc(NC(=O)c2ccc(Cl)c([N+](=O)[O-])c2)cc1	0	3	6	1	0	-9	103*	i
NC(=O)C1CCCN(Cc2ccc(Cl)cc2)C1 (centres undefined)	2	-162	4	-10	0	-4	3	i
Cc1ccnc(NC(=O)c2sc3ccccc3c2Cl)c1	-2	-44	-5	.	3	-2	14	i
CN(C)S(=O)(=O)c1ccc(C(=O)Nc2ccccc2[N+](=O)[O-])cc1	6	3	4	-30	3	6	16	i
Cc1ccccc1N1CCN(C2CCCN(C(=O)c3cc(C(C)C)[nH]n3)C2)CC1 (centres undefined)	3	.	-2	3	4	0	3	i
CC(=O)c1ccc(NC(=O)C2CCC(C)NC2=O)cc1 (centres undefined)	-8	.	-7	-14	-3	-4	-13	i
CCc1ccc(NC(=O)COC(=O)C2(c3ccc(Cl)cc3)CCCC2)cc1	1	.	-1	-35	-7	-21	33	i
Cc1cccc(C)c1N/C=C/c1onc(C)c1[N+](=O)[O-]	-4	.	-1	-3	.	.	5	i
CC(C)(C)C(=O)N1CCN(c2ccc(NC(=O)c3ccco3)cc2)CC1	-6	-1	-6	-14	5	1	.	i
Cc1ccccc1-n1c(Cn2c(=O)sc3ccccc32)nnc1SCC(=O)N1CCOCC1	12	3	0	-2	-3	1	-14	.
Cc1cccc(NC(=O)c2ccc(OCc3c(C)noc3C)cc2)c1C	.	-13	.	3	8	-5	30	.
N#C/C(=C(/O)CN1CCN(c2ccccc2F)CC1)c1nc(-c2ccccc2)cs1	-13	13	12	-9	6	-1	39	i
CC(C)c1ccc2[nH]c3c(c2c1)CCCC3=O	-2	7	-5	1	-5	-3	12	i
CC(=O)c1ccc(N2CCN(C(=O)CCCn3c(=O)[nH]c4ccc(Br)cc4c3=O)CC2)cc1	-2	18	0	.	1	-4	38	i
Cc1cccc(N2C(=O)CC(N3CCN(c4ccc(Cl)cc4)CC3)C2=O)c1 (centres undefined)	15	-6	-1	-4	4	2	-9	i
O=C(Nc1ccc2c(c1)OCCO2)c1cccc(C(=O)Nc2ccc3c(c2)OCCO3)c1	0	10	-2	-22	2	0	-11	i
O=C1C2(CCCC13COC(c1ccc(O)cc1)OC3)COC(c1ccc(O)cc1)OC2 (centres undefined)	1	10	3	.	.	.	2	i
O=C(Nc1ccc(NC(=O)c2ccccn2)cc1)C(=O)Nc1ccc2c(c1)OCCO2	-10	-1	-1	-3	-1	1	17	i
COc1cc(C(=O)N2CCNCC2)cc(OC)c1OC	-1	2	2	-5	0	6	.	i
COc1ccc(/C=C/C(=O)OC(C)CN2CCOCC2)cc1 (centres undefined)	3	-22	-1	-24	-3	1	-13	i
O=C(CN(C(=O)C1CSC(=O)C1)c1ccccc1F)NCc1ccc2c(c1)OCO2 (centres undefined)	-1	-1	2	1	7	-1	4	i
O=C(Cn1cnc2ccccc2c1=O)NCC(=O)N1CCN(c2ccccn2)CC1	-6	.	-3	-5	1	-6	-19	.
Cc1ccc(NC2CCCN(C(=O)C3CCCC3)C2)cc1C (centres undefined)	-10	6	-5	-3	-4	-4	-3	i
